Source: PubChem BioAssay (National Center for Advancing Translational Sciences (NCATS))
ClpP mod: qHTS Assay for Activators of ClpP | ATP-dependent Clp protease proteolytic subunit (Bacillus subtilis (strain 168)), P80244 | purified B. subtilis ClpP, FRET peptide cleavage, 20 min | Potency, µM (series often up to 57.5 µM), for inactives: at the top dose activity change, negative = active | hit rate 1.9% among 340,000 | AID 651965, 2013; active = well fitted falling curve with a large enough effect; inconclusive = small, poorly fitted or top-dose-only effect; inactive = no such curve, though single readings can be large or run the other way; note: potency is the fitted concentration of half-maximal effect; the source files actives as falling curves though it sought activators and does not explain the sign; nearly all actives have a fitted effect of over 65% in size; many hits overshoot -100%
Target sequence (P80244 whole entry, looked up): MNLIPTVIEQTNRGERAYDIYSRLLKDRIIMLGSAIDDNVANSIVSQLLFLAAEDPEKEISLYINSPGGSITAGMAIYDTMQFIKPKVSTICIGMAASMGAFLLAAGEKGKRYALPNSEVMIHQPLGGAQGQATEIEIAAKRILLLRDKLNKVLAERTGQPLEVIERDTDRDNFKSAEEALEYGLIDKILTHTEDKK
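Purified B. subtilis ClpP, 10 microg/mL final in Tris/HCl pH8 with KCl, BSA, glycerol and Tween-20, cleaved an Abz/nitrotyrosine-quenched decapeptide. Fluorescence (ex 320, em 430) was read at 0 and 20 min at room temperature. Delta was normalized to 5.8 microM ADEP and DMSO/no-enzyme controls.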
CtBP-E1A inh: qHTS Assay for Inhibitors of the CtBP/E1A Interaction; CtBP / adenovirus E1A interaction (AlphaScreen); AlphaScreen GST-E1A/His-CtBP binding, 1536-well; active compounds read low; control for the full effect not named in the record; activity change, % (no concentration beside the values); hit rate 0.49% among 340,000; AID 651724, 2012; in the data active means activity change below about -65%; inconclusive means about -30% to -65%; inactive means above about -30%; note: % is set by controls: 0 for no effect and ±100 for the full control effect
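AlphaScreen with 125 nM GST-E1A and 125 nM His-CtBP (5X stocks) in Tris pH 8.0, 300 mM NaCl, BSA, Tween 20, TCEP. Compounds preincubated 2 h at 37 deg C, then glutathione donor/nickel acceptor beads added for 1 h at 37 deg C in dark.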
The depositor's hits bear a star; ? = inconclusive. An excerpt; the hit share may differ from the screen's.

Values in the order: ClpP mod, CtBP-E1A inh
> CCOC(=O)[C@]12CCCC=C1N(Cc1ccco1)C(=O)[C@H](CC(=O)N1CCCCC1)C2
  2.1%, 4.0
> OC(c1ccc(F)cc1)c1ncc(-c2ccccc2Cl)[nH]1 (stereo unspecified)
  0.7%, -4.7
> O=C1Nc2ccccc2-n2nnnc2C1N1CCCN(Cc2ccc(F)cc2)CC1 (stereo unspecified)
  -7.0%, -9.0
> COc1ccc(CCCNC(=O)C2Cc3c(-c4cccc(C(N)=O)c4)ccnc3O2)cc1 (stereo unspecified)
  -4.1%, -0.2
> CS(=O)(=O)Nc1cccc(NC(=O)C2Cc3c(-c4ccco4)ccnc3O2)c1 (stereo unspecified)
  -6.1%, -1.4
> CC(=O)NCCNc1nc2cc(-c3ccccc3C)sc2c(=O)n1C
  -6.9%, -3.0
> CCN(CC)CCN1CCN(c2cncc(-c3ccc4ccccc4c3)n2)CC1
  -19.8%, -16.1
> CC(C)Oc1ccc(F)cc1-c1cc(C(=O)Nc2ccccc2)[nH]n1
  0.4%, 5.2
> C[C@H](NC(=O)[C@@H]1CCCN1C(=O)[C@@H]1CCCN1C(=O)c1ccccc1)c1ccccc1
  -0.1%, 0.1
> Cc1cn([C@H]2C[C@H](O)[C@@H](/C=C/C(=O)NCCN3CCOCC3)O2)c(=O)[nH]c1=O
  0.9%, 6.9
> COc1ccc(NC(=O)c2cc(C3CCCCN3C(=O)CCc3ccccc3)on2)c(C)c1 (stereo unspecified)
  2.2%, 1.1
> Cc1cc2c(cc1C)-n1nnnc1C(N(C)CCc1ccccc1)C(=O)N2 (stereo unspecified)
  -13.7%, 1.6
> CN(C)c1cccc(NC(=O)c2ccc(-c3ccc(F)c(F)c3)c3ccoc23)c1
  -18.8%, ?
> CC(C)CC(N)c1csc(Nc2ncccn2)n1 (stereo unspecified)
  -0.4%, -70.9*
> CN(C)CCN(C)C1CN(C2CCCC2)S(=O)(=O)C1 (stereo unspecified)
  1.1%, 1.3

Filtered by structure: the entries above with four or more nitrogen atoms.
Values in the order: ClpP mod, CtBP-E1A inh
> O=C1Nc2ccccc2-n2nnnc2C1N1CCCN(Cc2ccc(F)cc2)CC1 (stereo unspecified)
  -7.0%, -9.0
> CC(=O)NCCNc1nc2cc(-c3ccccc3C)sc2c(=O)n1C
  -6.9%, -3.0
> CCN(CC)CCN1CCN(c2cncc(-c3ccc4ccccc4c3)n2)CC1
  -19.8%, -16.1
> Cc1cn([C@H]2C[C@H](O)[C@@H](/C=C/C(=O)NCCN3CCOCC3)O2)c(=O)[nH]c1=O
  0.9%, 6.9
> Cc1cc2c(cc1C)-n1nnnc1C(N(C)CCc1ccccc1)C(=O)N2 (stereo unspecified)
  -13.7%, 1.6
> CC(C)CC(N)c1csc(Nc2ncccn2)n1 (stereo unspecified)
  -0.4%, -70.9*

Next structures.
Values in the order: ClpP mod, CtBP-E1A inh
> CC1(C(=O)Nc2ccccc2)Cc2c(-c3ccc4c(c3)OCO4)ccnc2O1 (stereo unspecified)
  5.1%, -28.8
> COc1ccc(C2=Cc3ccccc3C(CC(=O)C3CC3)N2c2ccc(C#CCCO)cc2)cc1 (stereo unspecified)
  ?, 7.5
> COC(=O)C[C@H]1C=C[C@H](NC(=O)Cc2ccccc2)[C@@H](CO)O1
  -3.3%, -15.0
> COCCCn1cc(CN2CC(N3CCN(C4CCN(C)CC4)CC3)CS2(=O)=O)nn1 (stereo unspecified)
  2.3%, 0.4
> NC(c1csc(Nc2nccc(C(F)(F)F)n2)n1)C1CCCCC1 (stereo unspecified)
  1.4%, -8.2
> COc1c(C)cc(C(O)c2ncc(-c3ccccc3C(F)(F)F)[nH]2)cc1C (stereo unspecified)
  -3.8%, 0.0
> CCNC(=O)C1(C)CCN1C(=O)CCc1cccc(Cl)c1 (stereo unspecified)
  0.5%, 25.4
> CCOC(=O)[C@]12CCC=C1N(Cc1cccc3ccccc13)C(=O)[C@H](CC(=O)NCCCOC)C2
  -0.9%, 4.8
> O=C(NCc1cccc(C(F)(F)F)c1)c1ccc2sc(COCCO)nc2c1
  0.7%, 0.2
> Cc1cccc(S(=O)(=O)NC(=O)C2(C)CCN2C(=O)Cc2cc(F)ccc2F)c1 (stereo unspecified)
  0.8%, -20.1
> CN(Cc1cn(Cc2cccc(C(F)(F)F)c2)nn1)C1CN(Cc2cn(Cc3cccc(C(F)(F)F)c3)nn2)S(=O)(=O)C1 (stereo unspecified)
  2.0%, -7.7
> O=C(c1cccc(Cl)c1)N1CCC(=O)N([C@H](COCc2ccccc2)Cc2ccccc2)CC1
  -1.6%, -26.7
> C=CCNc1ncnc2c1ncn2[C@H]1CN(Cc2cccs2)C[C@@H](CO)O1
  0.0%, 3.0
> CC(C)CNc1ncnc2c1ncn2[C@H]1CN(CCc2ccccc2)C[C@@H](CO)O1
  -0.1%, 0.4
> COc1ccccc1Cc1c(-c2cccc(Cl)c2)nc2ccc(C)cn12
  4.6%, -1.9
> CC1(C(=O)NS(=O)(=O)c2cccc(C#N)c2)CCN1C(=O)c1ccccc1 (stereo unspecified)
  -0.5%, 4.7
> COc1cc(OC)cc(C2=Cc3ccccc3C(CC(=O)c3ccco3)N2c2ccc(-c3cncnc3)cc2)c1 (stereo unspecified)
  -23.4%, 0.4
> CCC(CC)C(=O)N(C)c1c(C)nc2c(OCCOc3ccccc3)cccn12
  -0.8%, -2.5
> O=C(Nc1cccc(C(F)(F)F)c1)C1Cc2c(-c3ccccc3)ccnc2O1 (stereo unspecified)
  -6.4%, 1.0
> CN(C)CCNc1ncnc2c1ncn2[C@H]1CN(CCc2ccccc2)C[C@@H](CO)O1
  0.4%, 0.7
> O=CNc1cc(-c2cccc(O)c2)cn2c(-c3ccc(F)cc3)cnc12
  5.1%, -29.3
> CC(C)(C)c1ccc(C(=O)N2CCC2(C)C(=O)NCCC#N)cc1 (stereo unspecified)
  0.2%, 11.5
> COc1ccc(NC(=O)c2cc(-c3cc(F)ccc3OC(C)C)n[nH]2)cc1OC
  1.2%, -7.3
> CC(=O)Nc1ccc(CN2C(=O)C(CCc3ccccc3)ON=C2c2cnccn2)cc1 (stereo unspecified)
  0.7%, 1.3
> COc1cc(-c2coc3c(C(=O)NCc4cccc(Cl)c4)cccc23)ccc1O
  -6.8%, -16.1
> CCc1nc2ccc(C(=O)NCCc3ccccn3)cn2c1N(C)Cc1cccs1
  -3.9%, -0.2
> CCCS(=O)(=O)NC(=O)C1(C)CCN(C(=O)c2ccc(OC(F)F)cc2)C1 (stereo unspecified)
  -0.1%, 1.3
> O=C1N(c2ccccc2)c2ccccc2[C@]12C[C@H](O)CO2
  0.9%, 8.1
> CC(C)C[C@H]1CN([C@@H](CC(C)C)CN2CCC[C@H]2CN2C(=O)C(=O)NC[C@@H]2Cc2ccc(O)cc2)C(=O)C(=O)N1CC1CCCCCC1
  -0.4%, -0.1
> COC(=O)[C@]12CCCCC=C1N(Cc1ccco1)C(=O)[C@H](CC(=O)NCc1cccs1)C2
  0.5%, -13.1

(next part)
SMILES,ClpP mod,CtBP-E1A inh
CC(CNC(=O)[C@@H](Cc1ccccc1)NC(=O)CC[C@H]1O[C@@H](n2ccc(=O)[nH]c2=O)[C@H](O)[C@@H]1O)c1ccccc1 (stereo partly specified),-3.3%,-4.8
O=S1(=O)CC(N2CCN(CCO)CC2)CN1CCc1ccccc1 (stereo unspecified),-1.1%,-0.3
O=C1NC[C@@H](CCCCN2C[C@H](Cc3ccccc3)N(CCc3ccccc3)C(=O)C2=O)N(Cc2ccccc2)C1=O,-0.4%,4.1
COc1ccc([C@H]2CC(=O)C[C@@H](CCn3cc(-c4ccccc4)nn3)O2)cc1,3.5%,-8.3
C#Cc1ccc(NC(=O)C2(C)CCN2C(=O)C2(c3ccccc3)CCCC2)cc1 (stereo unspecified),0.4%,-1.5
COc1cccc(-c2oc3c(c2-c2ccc(OC)nc2)C(O)CCC3)c1 (stereo unspecified),-14.0%,-1.5
CCOC(=O)C1(C)CCCCN1C(=O)c1ccco1 (stereo unspecified),0.2%,9.2
CCCCOc1cccc2c(=O)n(CC(=O)Nc3ccc4c(c3)OCCO4)ccc12,1.1%,-18.0
COc1ncc(-c2c(-c3ccccc3OC)sc3ccccc23)cn1,?,-15.6
CC1=C(C(=O)N(C(C)C)C(C)C)CC(CC(=O)NCc2cccs2)C(=O)N1Cc1ccc(F)cc1 (stereo unspecified),-4.5%,-16.7
O=C(O)c1cc(Cl)n[nH]c1=O,-1.4%,0.0
CCCS(=O)(=O)NC(=O)C1(C)CCCN(C(=O)c2c(F)ccc(C)c2F)C1 (stereo unspecified),0.7%,2.6
COc1cccc(-c2cc(CNC(=O)[C@H]3O[C@@H](n4ccc(=O)[nH]c4=O)[C@H](O)[C@@H]3O)no2)c1,-7.6%,3.9
COc1ccccc1-c1cnc(C(O)c2ccc(C)c(F)c2)[nH]1 (stereo unspecified),-4.5%,-3.7
COc1ccc(-c2cnc3c(NC(C)=O)cc(-c4ccc(C(=O)NC5CC5)cc4)cn23)cc1OC,-5.2%,-8.7
COc1ccc(C(NC(=O)C2CCN(Cc3ccc(Oc4ccccc4)cc3)CC2)c2ccccn2)cc1 (stereo unspecified),0.1%,-18.2
O=c1ccn([C@@H]2O[C@H](CNCc3cccn3-c3nccs3)[C@@H](O)[C@H]2O)c(=O)[nH]1,-12.1%,1.7
O=C(NCCc1ccccc1)C1Cc2c(-c3ccc(Cl)cc3)ccnc2O1 (stereo unspecified),-3.2%,22.9
CCCCNC(=O)c1ccc2nc(CC)c(N(CC)CCOC)n2c1,-3.3%,8.0
COCCNC(=O)C1C(=O)Nc2ccccc2C(=O)N1C1CCCC1 (stereo unspecified),2.3%,2.6
Cc1ccccc1CN1C(=O)CN(S(C)(=O)=O)CC1(C)C(=O)Nc1ccc2c(c1)OCCO2 (stereo unspecified),0.9%,-11.7
CC1(C(=O)NS(=O)(=O)c2ccccc2Cl)CCN1C(=O)CCC1CCCC1 (stereo unspecified),2.6%,29.8
CC(C)C[C@H]1COc2cc(N3CCSCC3)ccc2S(=O)(=O)N1,-6.8%,1.7
CCc1nc2ccc(C(=O)NCCCN3CCCC3=O)cn2c1N(CC)C(C)=O,-24.0%,0.7
COc1ccc(OCCN2CCC(C(=O)NC(c3ccc(C)cc3)c3ccccn3)CC2)cc1 (stereo unspecified),2.4%,-1.0
COCOc1cccc(CN2CCC2(C)C(=O)Nc2ccc3c(c2)OCO3)c1 (stereo unspecified),-0.2%,2.5
CCC(=O)N1CCCC(C(=O)NCc2ccc(C(C)C)cc2)CC1 (stereo unspecified),0.1%,6.3
CC1(C(=O)NS(=O)(=O)Cc2ccccc2C(F)(F)F)CCN1C(=O)Cc1ccccc1 (stereo unspecified),0.8%,0.4
C[C@H](O)[C@@H]1CN2CCc3c([nH]c4ccccc34)[C@@H]2C[C@@H]1N(C)C(=S)NCCc1ccccc1,-9.6%,-17.1
CC1(C(=O)NS(=O)(=O)C2CC2)CCN(C(=O)c2ccc3c(c2)OCO3)C1 (stereo unspecified),0.0%,7.4
CC(C)c1cccc(-c2csc(C(O)c3ccc(F)c(F)c3)n2)c1 (stereo unspecified),-4.1%,7.2
Cn1nc(C(C)(C)C)cc1NC(=O)C1(C)CCN1C(=O)CC(c1ccccc1)c1ccccc1 (stereo unspecified),5.2%,1.0
COc1cccc(C(O)c2nc(-c3ccccc3C)cs2)c1 (stereo unspecified),0.5%,0.0
CCC(c1nc2ccccc2[nH]1)n1c(=O)c(-c2cccnc2)nc2ccccc21 (stereo unspecified),-6.3%,-13.4
N#Cc1ccc(-c2nc3ccc(Br)cn3c2Cc2cccc(Cl)c2)cc1,-16.1%,-2.9
COc1cc(NC(=O)C2(C)CCN2C(C)C)cc(OC)c1OC (stereo unspecified),-0.2%,6.6
CC(=O)OC[C@@H]1CN(Cc2ccccc2)C[C@H](n2cnc3c(N4CCCC4)ncnc32)O1,-7.7%,16.1
COC(=O)CCCn1cc(CN2CC(N3CCN(CCN(C)C)CC3)CS2(=O)=O)nn1 (stereo unspecified),-0.5%,-1.1
Cc1cc(NC(=O)CS(=O)(=O)c2cn(Cc3cccc(Br)c3)c3ccccc23)no1,-9.2%,-24.1
CCOC(=O)[C@]12CCCC=C1N(Cc1ccc3c(c1)OCO3)C(=O)[C@H](CC(=O)NCc1cccc(C(F)(F)F)c1)C2,1.0%,-0.5
CCOc1ccc(CCN2C(=S)N([C@@H](Cc3ccccc3)CN3CCCC3CN3C(=S)NC[C@@H]3Cc3ccccc3)C[C@@H]2Cc2ccc(O)cc2)cc1 (stereo partly specified),-1.1%,20.5
Cc1ccc(Cc2c(-c3cccc(Cl)c3)nc3ccc(C)cn23)cc1,4.6%,-3.1
COCCNc1nc(NCCOc2ccccc2)c2sc(-c3ccccc3)cc2n1,-24.4%,-1.4
CCCN(C)C1CN(Cc2cn(Cc3ccc(C)cc3)nn2)S(=O)(=O)C1 (stereo unspecified),-2.0%,-17.5
